Rango-impB inh – inhibitors of Rango-importin beta complex formation. Rango CFP/YFP FRET sensor + importin beta, 45 min. Q14974. 340,000 tested, 0.031% active. AID 540263. Potency, µM (titrated, usually from 92.2 µM), for inactives: at the highest dose inhibition of complex formation; active = rising FRET ratio curve, often small or poorly fitted; inconclusive = mostly compound fluorescence or quenching in the first reads; inactive = flat curves in all reads;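 further: potency means the concentration at half of the fitted maximal effect; 0% = DMSO wells and 100% = buffer wells lacking importin beta; nearly all actives have a fitted effect of over 15% in size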
Target sequence (Q14974 whole entry, looked up): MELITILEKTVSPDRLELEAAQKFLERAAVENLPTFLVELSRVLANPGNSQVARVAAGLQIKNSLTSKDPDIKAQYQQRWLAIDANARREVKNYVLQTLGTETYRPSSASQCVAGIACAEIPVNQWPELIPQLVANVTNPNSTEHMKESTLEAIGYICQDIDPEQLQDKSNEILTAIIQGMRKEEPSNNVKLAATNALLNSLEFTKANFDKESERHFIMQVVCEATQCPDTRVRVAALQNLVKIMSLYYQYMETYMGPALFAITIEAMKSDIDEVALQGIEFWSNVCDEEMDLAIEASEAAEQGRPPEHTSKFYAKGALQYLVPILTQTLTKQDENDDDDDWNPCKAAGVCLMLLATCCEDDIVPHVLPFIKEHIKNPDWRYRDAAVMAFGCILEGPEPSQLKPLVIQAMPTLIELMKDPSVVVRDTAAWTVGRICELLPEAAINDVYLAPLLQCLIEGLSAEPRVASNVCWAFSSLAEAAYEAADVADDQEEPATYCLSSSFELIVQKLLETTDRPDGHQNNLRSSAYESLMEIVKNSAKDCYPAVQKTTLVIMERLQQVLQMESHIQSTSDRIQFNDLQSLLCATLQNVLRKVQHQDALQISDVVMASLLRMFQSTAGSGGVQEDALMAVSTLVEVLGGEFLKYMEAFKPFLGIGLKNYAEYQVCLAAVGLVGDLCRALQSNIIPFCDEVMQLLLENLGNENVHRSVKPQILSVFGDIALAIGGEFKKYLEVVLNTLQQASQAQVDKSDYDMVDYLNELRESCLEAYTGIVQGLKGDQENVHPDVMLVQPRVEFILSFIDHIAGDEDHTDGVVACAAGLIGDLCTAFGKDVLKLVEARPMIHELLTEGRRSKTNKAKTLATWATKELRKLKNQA
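FRET biosensor Rango (snurportin 1 IBB between N-terminal EYFP and C-terminal Cerulean), 50 nM in PBS/1 mM DTT/0.02% Tween-20/0.1% BSA, preincubated 5 min RT with compound; 0.125 microM importin beta added, 45 min RT, CFP/YFP FRET ratio read.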
miR-21 reporter – raises the signal of a miR-21 reporter | HeLa miR-21 FLuc reporter, luciferase, 48 h | Potency, µM (top dose mostly 38.3 µM), inactives show top-dose reporter change, positive = more light | 340,000 tested, under 10 active | AID 2288; active = well fitted rising curve with a large enough effect; inconclusive = small, poorly fitted or top-dose-only effect; inactive = no such curve, though single readings can be large or run the other way;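 further: % of control where 0% means no effect; miR-21 action dims this reporter so a rising signal means less miR-21 action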
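HeLa miR-21-FLuc reporter line, endogenous miR-21; 2000 cells/well in DMEM/10% FBS; compound titration up to ~40uM final, 48 h, 37 degree Celsius; luciferase detection reagent, 15 min lysis, CCD luminescence.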
GLA inh pH 4.5 – alpha-galactosidase A (human) inhibition, pH 4.5; purified enzyme, 4-MU-alpha-Gal fluorescence, pH 4.5; activity change, negative = inhibition, % at 105 µM; 230,000 tested, under 10 active; inconclusive = small, poorly fitted or top-dose-only inhibition, or a rising curve; inactive = flat fitted curve, though single readings scatter; no compound was filed as active;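 further: 0% = full activity with enzyme and -100% = basal without enzyme; dose as in the result columns while the protocol names 77 µM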
Rango release inh – prevents RanGTP from dissociating the Rango-importin beta complex; Biochemical FRET Rango-importin beta, RanGTP-induced dissociation; 340,000 tested, 0.071% active; O95149+P62826; AID 540253; Potency, µM (highest dose often 46.1 µM), inactives show at the highest dose activity change, negative = inhibition; active means falling FRET ratio curve, often poorly fitted, with flat reads before Ran was added; inconclusive means other falling curves, or compound fluorescence or quenching; inactive means flat or rising ratio curve;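 further: potency means the concentration at half of the fitted maximal effect; % of control where 0% means no effect; nearly all actives have a fitted effect of over 45% in size; -100% = wells without RanGTP and RCC1; the record marks most hits as doubtful in a second field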
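Rango (0.1 uM)–importin beta (0.25 uM) complex; RanGTP-RCC1 trigger; 45 min RT; CFP/YFP FRET read.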
* = called active by the depositor; & = joins results of further samples; [ ] = dose if it differs, or a comment.

`COC(=O)[C@@]1(Cc2ccc(OC)cc2)[C@H]2c3cc(C(=O)N(C)C)n(Cc4ccc(OC(F)(F)F)cc4)c3C[C@H]2CN1C(=O)c1ccccc1` gave Rango-impB inh -4.0%, miR-21 reporter 23.5%, GLA inh pH 4.5 -7.3&-5.5 and Rango release inh 11.1%.
For Oc1ccc(-c2nc3ncccn3c2Nc2ccc3c(c2)OCCO3)cc1 the results were Rango-impB inh 0.1%, miR-21 reporter 0.8%, GLA inh pH 4.5 0.5 and Rango release inh -9.3%.
Cc1cc(Nc2ccccc2)nc(NCc2ccccc2)n1 was read as Rango-impB inh 5.6%, miR-21 reporter inconclusive, GLA inh pH 4.5 -22.8 and Rango release inh -17.8%.
Screening COCCNc1ccc(N2C(=O)C3CCCCC3C2=O)cc1[N+](=O)[O-] (stereo unspecified) returned Rango-impB inh -5.5%, miR-21 reporter 3.6%, GLA inh pH 4.5 0.5[21.1 µM] and Rango release inh -9.3%.
Screening O=C(CC(=O)Nc1ccc(Cl)cc1)N/N=C\c1cccc(F)c1 returned Rango-impB inh inconclusive, miR-21 reporter -1.4% and Rango release inh -2.6%.
Screening O=C(O)CCC(=O)Nc1sc2c(c1C(=O)NCc1ccccc1)CCCC2 returned Rango-impB inh 2.5%, miR-21 reporter -6.6% and Rango release inh 20.0%.
For COC(=O)N/N=C\c1ccccc1OC/C=C/c1ccccc1 the results were Rango-impB inh 0.0%, miR-21 reporter -18.2% and Rango release inh 1.1%.
Screening CC(C)(C)C(=O)Nc1cc(NC(=O)C(C)(C)C)cc(C(=O)Nc2c[nH]c(=O)[nH]c2=O)c1 returned Rango-impB inh -2.7% and Rango release inh 2.4%.
For CCc1cccc(NC(=O)C2CCCN(S(=O)(=O)c3cccnc3)C2)c1 (stereo unspecified) the results were Rango-impB inh 0.4%, miR-21 reporter 12.0% and Rango release inh -24.5%.
For COc1cc(C(=O)NCc2ccc3[nH]c(C)cc3c2)cc(OC)c1OC the results were Rango-impB inh 1.4%, miR-21 reporter 9.5%, GLA inh pH 4.5 -5.7 and Rango release inh -13.0%.
Screening CCNC(=O)Oc1ccc[nH]c1=O returned Rango-impB inh 1.4%, miR-21 reporter 17.6%, GLA inh pH 4.5 1.2 and Rango release inh -12.9%.
For COCc1[nH]c(=S)[nH]c(=O)c1C the results were Rango-impB inh 3.0%, miR-21 reporter 2.7%, GLA inh pH 4.5 -1.7 and Rango release inh 15.7%.
`COc1ccc(N2CCN(S(=O)(=O)c3ccc4c(c3)N(C(C)=O)CCO4)CC2)cc1` gave Rango-impB inh 0.0%, miR-21 reporter 12.8% and Rango release inh 0.2%.
For N#CC1(NC(=O)Cn2cc(C(F)(F)F)cc(Cl)c2=O)CCCCC1 the results were Rango-impB inh -0.1%, miR-21 reporter -0.8% and Rango release inh -1.3%.
Cc1ccccc1NC(=O)Cc1nnc(NC(=O)Nc2ccccc2F)s1 was read as Rango-impB inh 6.4%, miR-21 reporter -0.6%, GLA inh pH 4.5 -0.9 and Rango release inh 12.2%.
For Cc1ccccc1C(=O)NC1CCN(CC(=O)NC2CCCCC2)CC1 the results were Rango-impB inh -2.0%, miR-21 reporter -0.4% and Rango release inh -5.1%.
`Cc1ccc(N2C(N)=C(C#N)C(c3ccsc3)C3=C2CC(C)(C)CC3=O)cc1` (stereo unspecified) gave Rango-impB inh -3.8%, miR-21 reporter 0.6%, GLA inh pH 4.5 -4.0 and Rango release inh 2.5%.
`CS(=O)(=O)N1CCN=C1SCc1ccccc1` gave Rango-impB inh 3.4%, miR-21 reporter -12.0% and Rango release inh 21.3%.
For COC(=O)c1c(-c2cccs2)csc1NC(=O)CN1CCOCC1 the results were Rango-impB inh 4.7%, miR-21 reporter -0.4%, GLA inh pH 4.5 -13.5 and Rango release inh -4.7%.
Screening Cc1ccccc1NS(=O)(=O)c1ccc(C(=O)NNC(=O)c2ccccc2O)cc1 returned Rango-impB inh 0.3% and Rango release inh 0.3%.
CC1Cc2ccccc2N1C(=O)CSc1nnc(-c2ccc(S(=O)(=O)N3CCCC3)cc2)o1 (stereo unspecified) was read as Rango-impB inh -1.9%, miR-21 reporter 0.2%, GLA inh pH 4.5 -0.7 and Rango release inh -8.9%.
Screening Cc1ccc(OC(=O)c2ccc3snnc3c2)cc1 returned Rango-impB inh 1.2%, miR-21 reporter -16.9%, GLA inh pH 4.5 2.0 and Rango release inh -1.9%.
c1cncc(CSc2nnc3ccc(-c4ccco4)nn23)c1 was read as Rango-impB inh -2.0%, miR-21 reporter -0.3%, GLA inh pH 4.5 1.5 and Rango release inh -12.5%.
For Cc1ccc(C(=O)O)cc1NC(=S)NC(=O)Cc1ccccc1 the results were Rango-impB inh -1.3%, miR-21 reporter -1.1%, GLA inh pH 4.5 5.3 and Rango release inh 8.5%.
COCCCn1c(C(=O)N2CC(C)OC(C)C2)cc2c(=O)n3ccccc3nc21 (stereo unspecified) was read as Rango-impB inh inconclusive, miR-21 reporter -12.6% and Rango release inh -23.7%.
O=S(=O)(NCc1cn2ccccc2n1)c1cc(F)ccc1F was read as Rango-impB inh 3.7%, miR-21 reporter -4.1%, GLA inh pH 4.5 0.4 and Rango release inh 37.0%.
O=C(C1COc2ccccc2O1)N1CCN(S(=O)(=O)c2cc(F)ccc2F)CC1 (stereo unspecified) was read as Rango-impB inh -0.5% and Rango release inh inconclusive.
Screening CC(=O)N/N=C/c1c(C)[nH]n(-c2ccccc2)c1=O returned Rango-impB inh -5.9%, miR-21 reporter 2.3%, GLA inh pH 4.5 -0.6 and Rango release inh -6.4%.
Screening CCOC(=O)c1cnn(-c2nc(OCC)cc(OCC)n2)c1C returned Rango-impB inh -1.0%, miR-21 reporter -4.2%, GLA inh pH 4.5 -0.2 and Rango release inh -17.6%.
`CCCC(=O)N(CCN1CCOCC1)c1nc2cc(C)c(C)cc2s1` gave Rango-impB inh 5.4%, miR-21 reporter -61.7% and Rango release inh -12.3%.
Screening CC1=NNC(=O)C1Cc1ccccc1C (stereo unspecified) returned Rango-impB inh 5.4%, miR-21 reporter -3.6% and Rango release inh 5.3%.
COc1ccc(OCC(=O)Nc2ccc(C(=O)Nc3ccccc3C(=O)O)cc2)cc1 was read as Rango-impB inh -0.6%, miR-21 reporter -2.9% and Rango release inh -0.9%.
For CCN1CCC(Nc2ccnc3cc(Cl)ccc23)CC1 the results were Rango-impB inh 1.7%, miR-21 reporter 11.5%, GLA inh pH 4.5 -17.1 and Rango release inh 1.1%.
`CC(C)(C)c1ccccc1OCC(=O)Nc1ccccc1C(=O)NCc1cccnc1` gave Rango-impB inh -3.6%, miR-21 reporter inconclusive and Rango release inh 22.8%.
`CCn1c2ccccc2c2cc(NC(=O)CN(C)CC(=O)Nc3ccc(N4CCOCC4)cc3)ccc21` gave Rango-impB inh -0.3%, miR-21 reporter 1.8%, GLA inh pH 4.5 -0.8 and Rango release inh 10.6%.
For Cc1nc(C)c(-c2csc(NCc3ccccc3)n2)s1 the results were Rango-impB inh 2.0%, miR-21 reporter -22.0%, GLA inh pH 4.5 1.5 and Rango release inh 18.9%.
For CCCC1Cc2c(sc3ncnc(N)c23)CO1 (stereo unspecified) the results were Rango-impB inh inconclusive, miR-21 reporter -14.1%, GLA inh pH 4.5 0.8 and Rango release inh -19.4%.
Screening COc1ccc(C(=O)NCCn2ccc3ccccc32)c(OC)c1 returned Rango-impB inh -0.6%, miR-21 reporter -24.8%, GLA inh pH 4.5 2.6 and Rango release inh -20.0%.
C=CCn1c(SCC(=O)Nc2cc(C)ccc2C)nnc1-c1cnccn1 was read as Rango-impB inh -1.6%, miR-21 reporter -7.6%, GLA inh pH 4.5 -6.4 and Rango release inh 1.5%.
Cc1c(NC(=O)c2cc(-c3ccc(F)cc3)nc3ccccc23)c(=O)n(-c2ccccc2)n1C was read as Rango-impB inh 4.2% and Rango release inh 41.4%.
COc1cccc(/C=N/NC(=O)C(=O)NCc2ccco2)c1OC was read as Rango-impB inh -1.7%, miR-21 reporter -4.1%, GLA inh pH 4.5 -2.5 and Rango release inh 1.8%.
For CCOC(=O)C(Cc1c(F)cccc1Cl)c1ccnc2nc(N)nn12 (stereo unspecified) the results were Rango-impB inh -0.1%, miR-21 reporter -9.1%, GLA inh pH 4.5 -2.4 and Rango release inh 0.7%.
Cc1oc2ccc(OCc3ccc(F)cc3Cl)cc2c1C(=O)O was read as Rango-impB inh 1.7%, miR-21 reporter -1.0%, GLA inh pH 4.5 2.3 and Rango release inh -6.8%.
Screening O=[N+]([O-])c1cc(Br)ccc1NS(=O)(=O)c1ccccc1 returned Rango-impB inh 5.9% and Rango release inh 4.7%.
Screening COc1ccc2oc(=O)c(C(=O)NCc3ccc(F)cc3)cc2c1 returned Rango-impB inh inconclusive, miR-21 reporter 0.1% and Rango release inh -11.6%.
`CCn1c(-c2cc(-c3ccc(C)cc3)nc3ccccc23)n[nH]c1=S` gave Rango-impB inh -1.0%, miR-21 reporter -20.3%, GLA inh pH 4.5 4.4 and Rango release inh -1.5%.
COc1ccc(C2C(C(=O)NCc3ccco3)CCC(=O)N2c2ccc(OC)cc2)cc1 (stereo unspecified) was read as Rango-impB inh 3.4%, miR-21 reporter -7.3%, GLA inh pH 4.5 -0.2 and Rango release inh -0.7%.
`COc1ccc(O)c(C=Nc2cc(C)on2)c1` gave Rango-impB inh -0.1%, miR-21 reporter -4.7%, GLA inh pH 4.5 2.8 and Rango release inh 1.7%.
Screening Cc1cccc(N(C)S(=O)(=O)c2csc(C(N)=O)c2)c1 returned Rango-impB inh 2.3%, miR-21 reporter -0.6% and Rango release inh 2.3%.
`COCCNCC(=O)Nc1nc(C)cs1` gave Rango-impB inh 1.4%, miR-21 reporter -1.0%, GLA inh pH 4.5 12.8 and Rango release inh -4.6%.
`COc1cccc(NC(=O)c2ccccc2-c2ccccc2C(=O)O)c1` gave Rango-impB inh -1.4%, miR-21 reporter -13.0% and Rango release inh -3.8%.
Screening CCOC(=O)c1ccc(NS(=O)(=O)c2cc(-c3nnnn3CC)ccc2OC)cc1 returned Rango-impB inh -0.7%, miR-21 reporter -3.1%, GLA inh pH 4.5 -11.2 and Rango release inh 38.6%.
`CCCCN(C1CCS(=O)(=O)C1)S(=O)(=O)c1ccc(OC)c(OC)c1` (stereo unspecified) gave Rango-impB inh -3.5% and Rango release inh inconclusive.
Screening O=C(Nc1nnc(CCc2ccccc2)s1)c1ccco1 returned Rango-impB inh 2.1%, miR-21 reporter -27.2%, GLA inh pH 4.5 -6.3 and Rango release inh 0.5%.
`CC(C)(C)c1ccc(C(=O)NC(=O)COC(=O)c2ccc(Br)o2)cc1` gave Rango-impB inh -1.8% and Rango release inh 6.7%.
Screening CN1CCN(CCCCC(=O)c2ccccc2)CC1 returned Rango-impB inh -0.9%, miR-21 reporter -5.5%, GLA inh pH 4.5 -0.4 and Rango release inh -0.6%.
`COc1ccc(/C=N/NC(=O)/C(=C/c2ccccc2)CCO)cc1` gave Rango-impB inh 9.8%, miR-21 reporter -5.5%, GLA inh pH 4.5 9.5 and Rango release inh 14.0%.
`COc1cc(N=Cc2c(CO)cnc(C)c2O)cc(OC)c1OC` gave Rango-impB inh -0.4%, miR-21 reporter 0.3% and Rango release inh 1.1%.
Screening Cc1cc(N)nc2nc(C(F)(F)F)nn12 returned Rango-impB inh -3.7%, miR-21 reporter 5.7%, GLA inh pH 4.5 4.0 and Rango release inh -5.6%.

5 records picked at random from those above:
Screening CCOC(=O)c1ccc(NS(=O)(=O)c2cc(-c3nnnn3CC)ccc2OC)cc1 returned Rango-impB inh -0.7%, miR-21 reporter -3.1%, GLA inh pH 4.5 -11.2 and Rango release inh 38.6%.
`COc1cc(N=Cc2c(CO)cnc(C)c2O)cc(OC)c1OC` gave Rango-impB inh -0.4%, miR-21 reporter 0.3% and Rango release inh 1.1%.
`COCCNCC(=O)Nc1nc(C)cs1` gave Rango-impB inh 1.4%, miR-21 reporter -1.0%, GLA inh pH 4.5 12.8 and Rango release inh -4.6%.
`CC(C)(C)c1ccc(C(=O)NC(=O)COC(=O)c2ccc(Br)o2)cc1` gave Rango-impB inh -1.8% and Rango release inh 6.7%.
Screening Cc1cccc(N(C)S(=O)(=O)c2csc(C(N)=O)c2)c1 returned Rango-impB inh 2.3%, miR-21 reporter -0.6% and Rango release inh 2.3%.

Screens as filed in PubChem.

This is a subset. The share of hits here may be higher or lower than overall.
